Screening data deposited in PubChem BioAssay by National Center for Advancing Translational Sciences (NCATS).
Menin-MLL FL inh: qHTS Assay for Inhibitors Targeting the Menin-MLL Interaction in MLL Related Leukemias: Competition With Fluorescein Labeled MLL-derived Peptide | Fluorescence polarization, fluorescein-MLL peptide displacement from menin | FP activity change, % at 61.4 µM | 290,000 tested, under 10 active; inconclusive = falling polarisation curve, or a change in total fluorescence; inactive = total fluorescence flat and polarisation flat or rising; no compound was filed as active; the % refers to the polarisation; negative = inhibition;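 further: % of control where 0% means no effect; inhibitors lower the polarisation; unlabelled MLL peptide was the positive control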
gsp ag: qHTS for Agonist of gsp, the Etiologic Mutation Responsible for Fibrous Dysplasia/McCune-Albright Syndrome: qHTS. gsp mutant cells, cAMP HTRF, 30 min; control for the full effect not named in the record. Potency, µM (top dose mostly 76.9 µM), inactives show at the top dose activation (cAMP increase), actives largely listed as activators. hit rate 0.13% among 340,000. AID 624287, 2012; active = well fitted activation curve with a large enough effect; inconclusive = small, poorly fitted or top-dose-only effect, or another doubt; inactive = no such curve, though single readings can be large or run the other way; cell line not stated here;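 further: phosphodiesterase inhibitor Ro 20-1724 added with compounds to block cAMP breakdown; potency means the concentration at half of the fitted maximal effect; nearly all actives have a fitted effect of over 60% in size; about a fifth of the inactives were tested at one dose only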
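Cells in DMEM/10% FBS with G418 were pretreated with compounds in DMSO plus […] (300 uM stock) for 30 min at 37C. cAMP was measured by HTRF (cAMP-d2 plus anti-cAMP antibody-K) after 30 min at room temperature.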
D2 PAM: Beta-Arrestin HTS for Positive Allosteric Modulators of the Human D2 Dopamine Receptor: Potentiators. DiscoveRx D2 beta-arrestin cells, luminescence, 90 min; 100% = 57 uM dopamine signal. potentiation, % (no concentration beside the values). hit rate 0.23% among 360,000. D(2) dopamine receptor (Homo sapiens), P14416; active = potentiation of 50% or more; inconclusive = 30% to 50%; inactive = 30% or less;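 further: compound concentration not given in the record; tested on top of an EC20 dose of dopamine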
Target sequence (P14416 whole entry, looked up): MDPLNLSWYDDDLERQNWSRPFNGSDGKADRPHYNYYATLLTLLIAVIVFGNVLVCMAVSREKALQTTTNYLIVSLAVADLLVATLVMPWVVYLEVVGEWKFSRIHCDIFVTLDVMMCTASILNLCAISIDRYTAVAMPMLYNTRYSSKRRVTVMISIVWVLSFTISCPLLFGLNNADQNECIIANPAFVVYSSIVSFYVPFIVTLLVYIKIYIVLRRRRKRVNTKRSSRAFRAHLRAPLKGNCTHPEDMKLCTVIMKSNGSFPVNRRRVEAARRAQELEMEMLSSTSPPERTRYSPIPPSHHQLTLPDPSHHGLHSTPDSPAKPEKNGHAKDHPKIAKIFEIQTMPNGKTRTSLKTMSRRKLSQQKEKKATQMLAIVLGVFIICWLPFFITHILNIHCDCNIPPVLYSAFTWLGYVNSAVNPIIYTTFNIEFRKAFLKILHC
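PathHunter D2 cells, attached overnight at 37 deg C, received compound in DMSO plus dopamine at EC20 (50 nM final) for 90 min at 37 deg C. Beta-arrestin recruitment was read as luminescence after 1 h with detection reagent at ambient temperature.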
ClpP mod: qHTS Assay for Activators of ClpP. hit rate 1.9% among 340,000. purified B. subtilis ClpP, FRET peptide cleavage, 20 min. Potency, µM (titrated, usually from 57.5 µM), for the others: at the highest dose activity change, negative = active; active = well fitted falling curve with a large enough effect; inconclusive = small, poorly fitted or top-dose-only effect; inactive = no such curve, though single readings can be large or run the other way; further: potency means the concentration at half of the fitted maximal effect; the source files actives as falling curves though it sought activators and does not explain the sign; nearly all actives have a fitted effect of over 65% in size; many hits overshoot -100%
Target sequence (P80244 whole entry, looked up): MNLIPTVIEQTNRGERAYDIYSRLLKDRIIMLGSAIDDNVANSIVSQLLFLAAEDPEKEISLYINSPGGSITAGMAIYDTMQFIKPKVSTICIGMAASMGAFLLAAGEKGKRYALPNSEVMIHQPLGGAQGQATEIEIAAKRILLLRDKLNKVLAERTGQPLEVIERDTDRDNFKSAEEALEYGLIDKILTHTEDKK
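ClpP 10 microg/mL final, pH 8 Tris/KCl buffer with BSA, glycerol, Tween-20; compound pinned in; FRET-FV substrate; RT 20 min; Ex320/Em430; ΔFRET vs ADEP 5.8 microM, DMSO, no enzyme.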
gsp antag: qHTS for Antagonists of gsp, the Etiologic Mutation Responsible for Fibrous Dysplasia/McCune-Albright Syndrome: qHTS | Potency, µM (series often up to 76.9 µM), for inactives: top-dose activity change, negative = inhibition, most hits filed as inhibitors | gsp-mutant cells, cAMP HTRF, 30 min; control for the full effect not named in the record | hit rate 0.4% among 340,000; active = falling curve of any shape with a large fitted effect; inconclusive = falling curve, mostly with a smaller effect; inactive = flat or rising curve; cell line not stated here;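 further: intracellular cAMP measured with PDE inhibitor Ro 20-1724 present during compound exposure; potency means the concentration at half of the fitted maximal effect; on the % scale 0 is the no-effect control and ±100 the full control effect; nearly all actives have a fitted effect of over 65% in size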
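G418-selected cells were plated in DMEM/10% FBS for 16-24 h at 37C, then treated with compounds plus the PDE inhibitor […] (300 uM solution added) for 30 min at 37C. Intracellular cAMP was measured by HTRF after 30 min lysis at room temperature.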
TRPV1 PAM: HTS Assay for Compounds that Act as Potentiators of the Vanilloid Receptor 1 | TRPV1-expressing cells, Fluo-8 calcium influx, capsaicin EC20 potentiation; host cell line not named in the record; control for the full effect not named in the record | AID 540277, 2011 | potentiation, % at 8.33 µM | hit rate 0.02% among 320,000; active means potentiation above 80%; inconclusive means 30% to 80%; inactive means below 30%; further: 0% is about no effect
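TRPV1-expressing cells were cultured overnight at 35.5C and loaded with Fluo-8 calcium dye for 40 to 90 min at room temperature. After a 10 s baseline, compound was added and calcium influx was read kinetically for 3 min (ex 480/em 520 nm).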
Sfp inh: qHTS Assay for Inhibitors of Bacillus subtilis Sfp phosphopantetheinyl transferase (PPTase); AID 1490, 2009; 4'-phosphopantetheinyl transferase ffp (Bacillus subtilis), Q9F4F7; Biochemical Sfp PPTase activity, qHTS; hit rate 3.5% among 310,000; Potency, µM, inactives show max response, negative = inhibition, actives largely listed as inhibitors; active means well fitted inhibition curve with a large enough effect; inconclusive means small, poorly fitted or top-dose-only effect, or another doubt; inactive means no such curve, though single readings can be large or run the other way;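 further: the enzyme is Sfp with the accession as filed and its product quenches rhodamine fluorescence; potency means the concentration at half of the fitted maximal effect; 0% = enzyme reaction without inhibitor and -100% = no enzyme wells; top concentration of the series not given in the record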
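After 15 min at room temperature with compound, 15 nM Sfp received 5 uM rhodamine-CoA plus 12.5 uM BHQ-2-ybbR (50 mM Hepes pH 7.6, 10 mM MgCl2). Rate came from the fluorescence difference over 30 min, ex 525/em 598 nm.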
The depositor's hits bear a star; u = inconclusive; x = not tested or not shown; & = joins results of further samples; [ ] = another dose, or the depositor's remark.

SMILES	Menin-MLL FL inh	gsp ag	D2 PAM	ClpP mod	gsp antag	TRPV1 PAM	Sfp inh
O=C1C2C3C=CC(C2C(=O)N1c1cccc(O)c1)C1C2C(=O)N(c4cccc(O)c4)C(=O)C2C31 (stereo not given)	1.4	-5%	-8	0.1%	2%	9	8%
CCOc1ccc(/C=C2\SC(=S)N(C(C(=O)O)c3ccccc3)C2=O)cc1OC (stereo not given)	29	-177%[inhibitor]	-5	1.3%	-18%	2	56µM*
Cc1cc(C(F)F)n2nc(C(=O)Nc3ccccc3F)nc2n1	1.2	-11%	2	-1.6%	0%	-11	13%
CCOC(=O)c1c(/N=C/N(C)C)sc(/C=N/Nc2ccccc2)c1-c1ccc(Cl)cc1	9.5	13µM*	-3	-3.8%	7%	2	14%
C=CCN(Cc1ccc(Cl)s1)C(=O)c1ccc(F)c(S(=O)(=O)N2CCOCC2)c1	x	-7%	-8	0.6%	5%	x	x
COc1ccc(-c2csc(NC(=O)c3ccccc3OC)c2C(=O)O)cc1OC	1.7	-5%	-5	0.5%	-13%	2	21%
O=c1[nH]c(C2CCCN(S(=O)(=O)c3ccccc3)C2)nc2c1nnn2Cc1ccc2c(c1)OCCO2 (stereo not given)	x	-27%	-7	0.5%	-2%	26	-9%
CCn1c(C)[n+](CC)c2ccc(S(=O)(=O)N(C)C)cc21	-0.6	-7%[15.4 µM]	1	x	13%	-3	10%
NCCCCCC(=O)N/N=C/c1coc2ccccc2c1=O	1.9	0%[15.4 µM]	-9	18µM*	8%	-5	-10%
CCOC(=O)N1CCN(S(=O)(=O)N2CCCC(C(=O)NCCc3ccc(C)cc3)C2)CC1 (stereo not given)	-2.1	u	2	1.4%	-3%	-1	21%
O=C(COC(=O)Cc1cccc(F)c1)NC(=O)NC1CCCCC1	x	-25%[15.4 µM]	-4	x	9%	9	x
CCN(CC)CCN(C(=O)c1ccccc1OC)c1nc2ccc(F)cc2s1	1.6	-21%	-18	0.8%	5%	-9	10%
O=C(CCc1ccccc1)NNC(=S)NC(=O)c1ccccc1	0.2	1%	0	0.7%	-7%	8	u
CCN(C(=O)COC(=O)/C=C/c1ccc(Cl)c(Cl)c1)c1c(N)n(Cc2ccccc2)c(=O)[nH]c1=O	x	-4%	0	-3.8%	-10%	x	x
O=C(c1ccc(Cl)c(S(=O)(=O)N2CCOCC2)c1)N1CCc2ccccc2C1	x	-35%	-12	-3.1%	-9%	x	x
COc1ccc(/C=N/NC(N)=S)cc1	5.3	-12%[15.4 µM]	-2	x	10%	3	-13%
CN(C)S(=O)(=O)c1cccc(NC(=O)COC(=O)c2cc(=O)[nH]c(=O)[nH]2)c1	-2.1	15%[15.4 µM]	-12	x	18%	13	22%
COc1cc([N+](=O)[O-])ccc1NC(=S)NC(=O)CC(C)(C)C	0.9	23%	-9	3.3%	-6%	-10	23%
CCOc1ccc(C(=O)CCC(=O)NCC(=O)OCc2ccccc2)cc1OCC	u	-10%	-4	x	0%	29	4%
O=C(CSc1nc2ccccc2s1)N/N=C/c1cc([N+](=O)[O-])ccc1O	5.3	37%	-10	x	-14%	8	15%
O=C(CN1CCOCC1)Nc1ccc(Oc2ccccc2)cc1	2.3	21%	5	0.5%	-4%	5	19%
O=C(Cc1sc(Nc2ccccc2)nc1-c1ccccc1)NCc1ccccn1	6.5	15%[15.4 µM]	-24	x	-14%	7	14µM*
Cn1c(N)c(C(=O)COC(=O)c2cc(C(F)(F)F)nc3ccccc23)c(=O)n(Cc2ccccc2)c1=O	23&20	x	-13	-8.7%	-22%	5	21%&11%
O=C1c2ccccc2C(=O)N1CCCCCCc1ccccc1	x	-15%	-2	0.6%	-7%	-8	x
Cc1cccc(-c2nsc(SCC(=O)NCc3ccc4c(c3)OCO4)n2)c1	1.6	4%	-20	1.8%	-7%	7	-25%
Remaining list, next part.
SMILES	Menin-MLL FL inh	gsp ag	D2 PAM	ClpP mod	gsp antag	TRPV1 PAM	Sfp inh
CCC1(CC)NC(=O)N(CC(=O)OCC(=O)Nc2ccccc2OC(F)F)C1=O	x	-21%	-3	1.0%	6%	3	x
N#CCCN1CCN(S(=O)(=O)c2cc(Cl)ccc2Cl)CC1	0.1	-20%[15.4 µM]	0	-0.7%	4%	6	15%
COC(=O)c1ccc(CN2CCN(Cc3ccc(C(=O)OC)o3)CC2)o1	3.3	17%	-32	-2.4%	8%	7	20%
CCCC(=O)Nc1nc2n(n1)C(c1ccccc1)CC(=O)N2 (stereo not given)	12	u	-6	-2.5%	-1%	24	5%
Cc1ccc(SCC(=O)OCC(=O)NC2(C#N)CCCCC2)cc1	x	11%	-13	1.2%	12%	u	-4%
CC1c2ccccc2SC(CCCN(C)C)c2ccccc21 (stereo not given)	-4.9	u	-39	1.2%	20%	0	45µM*
COc1cc2c(cc1NC(=O)Nc1ccc(F)cc1)oc1ccccc12	-0.1	-3%	-32	93%	-20%	-2	u
Cc1ccc(C(C)C)c(OCCNCCc2ccccc2)c1	-4.1	-23%	-15	0.6%	10%	-1	-25%
CC(c1ccon1)N(C)C(=O)CCc1nnc(CCCCc2ccccc2)o1 (stereo not given)	-0.3	-27%	1	4.1%	-4%	-7	11%
CCOC(=O)CSc1nc(-c2ccccc2)cc(C(F)(F)F)n1	-0.1	6%	-7	-1.1%	-13%	0	8%
COc1ccc(/C=N/NC(=O)c2ccccc2F)cc1CN1CCN(c2ccc(F)cc2)CC1	4.8	7%[15.4 µM]	-13	2.6%	-19%	-7	3%
O=C(NCCCc1ccccc1)C(=O)NCC1OCCN1S(=O)(=O)c1ccccc1 (stereo not given)	x	2%[15.4 µM]	-7	10%	3%	x	x
C=CC[N@@+]12CC[C@]34c5ccccc5N5/C=C6\C7N(/C=C(\C53)[C@@H](C[C@@H]41)/C(=C/CO)C2)c1ccccc1[C@@]71CC[N@@+]2(CC=C)C/C(=C\CO)[C@@H]6C[C@@H]12 (stereo not given in full)	x	x	-22	-1.3%	-9%	1	x
O=C(CSc1nnc(-c2c[nH]c3ccccc23)n1C1CC1)NC1CCS(=O)(=O)C1 (stereo not given)	x	0%	1	0.1%	x	x	x
COc1ccc(/C=N/NC(=S)Nc2ccccc2)cc1COc1ccccc1F	5.0	x	x	x	x	-1	17%
CS(=O)(=O)c1ccc2nnn(OCC(=O)Nc3ccc(Br)cc3Br)c2c1	-4.4	-12%[15.4 µM]	-4	x	-73%	13	-1%
CCOC(=O)CSc1nnc(-c2cccc(Cl)c2)n1CC	1.4	5%	-7	-1.1%	-15%	u	16%
COC(=O)c1ccc(N2CCN(C)CC2)c(NC(=O)COc2ccccc2Cl)c1	x	-25%[15.4 µM]	-9	x	1%	9	10%
CCN(C1CCCCC1)S(=O)(=O)c1ccc(C(=O)O)cc1	1.3	u	-4	-0.7%	-9%	9	14%
NC(=S)NN=C1C=CCCC1	x	-33%[inhibitor]	-5	-2.8%	-1%	x	x
O=C(Cc1ccccc1)Nc1ccc2oc(=O)ccc2c1	-2.6	-3%[15.4 µM]	-4	-1.2%	3%	12	2%
Cc1cccc(NC(=S)N(CCN2CCOCC2)Cc2ccccc2F)c1	-0.1	5%[15.4 µM]	-5	x	-2%	u	17%
COC(=O)c1ccc(CSc2nnc(N)s2)cc1	1.2	-2%	1	-13%	-8%	-13	0%
Cc1nnsc1-c1c(C(=O)N2CCOCC2)c(C)nn1-c1ccccc1	-2.2	5%[15.4 µM]	-1	-1.0%	7%	-9	13%
Nc1nonc1-c1nc2ccccc2n1CC(=O)Nc1ccccc1	-3.2	-4%[15.4 µM]	-1	x	4%	8	6%
Remaining list, next part
SMILES	Menin-MLL FL inh	gsp ag	D2 PAM	ClpP mod	gsp antag	TRPV1 PAM	Sfp inh
O=[N+]([O-])c1ccc(/C([O-])=C(/C(=S)NCc2ccco2)[n+]2ccccc2)cc1	-29	u	-2	x	1%	-7	8.9µM*
O=C(Oc1ccc(/C=N/O)cc1)c1ccccc1Cl	-0.3	12%	-10	-3.3%	-2%	16	-9%
COc1ccc(OC)c(NC(=O)C(C)N2c3cccc4cccc(c34)S2(=O)=O)c1 (stereo not given)	-0.1	-4%[15.4 µM]	6	x	-10%	5	-5%
COCc1[nH]nc2c1C(c1ccc(F)cc1F)C(C#N)=C(N)O2 (stereo not given)	0.4	1%	-7	0.4%	-8%	-27	14%
Cc1ccc(-n2c(-c3ccc(Br)cc3)c[n+]3c2CCc2ccc4cccnc4c2-3)cc1	3.1	-3%	-15	-22%	-6%	3	-12%
CC(=O)N1c2ccc(S(=O)(=O)N3CCCC3)cc2CC1C(=O)NCc1ccccc1F (stereo not given)	x	u	-14	-0.9%	-11%	-8	10%
Cc1ccc(NC2=CC(=O)CC(c3ccco3)C2)c(N)c1 (stereo not given)	3.1	-2%	-8	-2.4%	-4%	-21	-3%
N#CCCNC(=O)CCN1CCOCC1	2.4	u	-23	1.3%	5%	-5	8%
CCc1nnc(NC(=O)CCC(=O)N2CCN(CCc3ccccc3)CC2)s1	2.7	-17%	-21	0.0%	-16%	-4	-16%
O=C(CSc1nc(-c2ccco2)cc(C(F)(F)F)n1)NCCN1CCOCC1	0.4	u	-6	x	-1%	25	5%
Cc1cc(=O)[nH]c2nnc(-c3ccc(Cl)cc3)n12	-1.1	5%[15.4 µM]	-7	-0.7%	-37%	25	10%
Cc1ccc(-c2nnc(C)c(N3CCCC3)n2)cc1	-4.4	-1%[15.4 µM]	-7	x	7%	-7	4%
Cc1ccc(-c2csc(-c3ccncc3)n2)cc1	-2.8	-1%	-8	-25%	4%	-6	0%
